# Rce1 inhib – yeast Ras-converting enzyme inhibition; calls only; yeast membranes, quenched prenylated peptide cleavage fluorescence; AID 2563; hit rate 0.27% among 290,000;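 active = fall in fluorescence gain of 50% or more versus controls, with final raw signal at or below 3038400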;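 note: plate controls were neutral control wells for no effect and wells lacking membranes for full effect; tested at 10 µM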
# Env fusion inh – HIV envelope-mediated fusion inhibition. HeLa-JRFL Env/CEM21 cell fusion, luciferase. inhibition, % at 12.3 µM. hit rate 1.1% among 360,000. AID 651610;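 active = mean replicate inhibition score of at least 50 and every replicate individually at or above 50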;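 note: 0% = plate neutral controls and 100% = maraviroc near 300 nM; one replicate is shown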
# eIF4H FP inh – inhibitors of RNA binding by human eIF4H. hit rate 0.94% among 290,000. eIF4H fluorescence polarization binding assay. inhibition, % at 35 µM. Q15056;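 active = 50% or more with normal probe brightness, or confirmed in later tests; about a fifth of its hits are not listed in these tables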;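 note: calls also rest on retests at 20 µM and on dose response follow-up; 0% = protein and probe with vehicle and 100% = probe without protein; strong numbers were not always called active; many hits fall short of the cut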
# UUG fidelity – modulators of start codon recognition fidelity in yeast; activity score, % at 18.7 µM; S. cerevisiae UUG-firefly luciferase reporter, luminescence/redox ratio; AID 602363; hit rate 0.13% among 350,000;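 active = replicate mean at a twofold rise or more, about +100% in these data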;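 note: firefly luciferase made from a UUG start codon reports start codon fidelity; reporter light over untreated wells divided by growth signal over untreated wells; some hits fall short of that in this replicate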
# CSC inhib – blocks cancer stem cells; AID 2717; hit rate 1.1% among 300,000; cancer stem cell-like cells viability, luminescence; inhibition, % at 7.5 µM;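 active = mean at 75% or more and at least half the replicates too; tested in HMLE shEcad cells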;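 note: 0% = median of negative and 100% = median of positive control wells; the first replicate is given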
# MT1-MMP act inh – MT1-MMP (human) activation inhibition | HT1080 RFP-PRO-GFP cells, GFP/RFP ratio fluorescence, overnight; percent of plate control window, DMSO zero | hit rate 0.061% among 360,000 | GFP/RFP ratio change, % at 20 µM | P50281;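 active = GFP/RFP ratio change of at least 30% with cell ATP level not reduced by more than half and red fluorescence within 50% of control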; note: strong numbers were not always called active
#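 system = RFP-PRO-GFP reporter HT1080 cells | dosing = 20 µM single dose, 1% DMSO | timing = overnight cell settling, then overnight compound exposure, 37 °C, 5% CO2 | read-out basis = GFP/RFP fluorescence ratio | controls = DMSO and RFP-L50D-GFP cell wells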
# PABP FP inh – PABP-poly(A) binding inhibition | P11940 | PABP-poly(A) RNA binding, fluorescence polarization | inhibition, % at 35 µM | hit rate 1% among 290,000;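 active = 50% or more with normal probe brightness, or confirmed in later tests; about a fifth of its hits are not listed in these tables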;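 note: calls also rest on retests at 20 µM and on dose response follow-up; controls were probe without protein and protein plus probe with vehicle; some compounds called inactive have numbers as strong as hits; many hits fall short of the cut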
# Target sequence (P11940 whole entry, looked up): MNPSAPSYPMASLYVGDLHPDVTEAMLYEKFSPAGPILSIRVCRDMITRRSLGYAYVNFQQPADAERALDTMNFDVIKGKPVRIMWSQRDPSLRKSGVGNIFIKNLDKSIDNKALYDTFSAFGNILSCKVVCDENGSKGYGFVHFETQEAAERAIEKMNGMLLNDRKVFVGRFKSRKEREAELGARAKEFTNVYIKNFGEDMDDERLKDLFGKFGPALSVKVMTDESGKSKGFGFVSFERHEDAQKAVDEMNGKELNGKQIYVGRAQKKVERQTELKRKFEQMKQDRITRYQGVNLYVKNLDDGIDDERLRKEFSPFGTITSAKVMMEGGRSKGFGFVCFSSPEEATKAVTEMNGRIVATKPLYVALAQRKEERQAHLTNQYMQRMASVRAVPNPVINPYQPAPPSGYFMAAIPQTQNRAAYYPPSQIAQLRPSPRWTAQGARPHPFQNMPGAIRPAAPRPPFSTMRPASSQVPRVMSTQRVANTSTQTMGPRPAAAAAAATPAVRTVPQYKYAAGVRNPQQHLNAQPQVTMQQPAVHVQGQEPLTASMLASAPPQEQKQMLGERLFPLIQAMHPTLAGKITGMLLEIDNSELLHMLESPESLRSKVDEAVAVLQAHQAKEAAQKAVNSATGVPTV
# MT1-MMP act inh RFP – recorded beside MT1-MMP act inh, whose call it bears; RFP signal change, %; measured here: RFP expression control read;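 0 = vehicle wells; hits needed this value within 50% of zero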
# Numbers without * were called inactive; i = inactive; / = no result given; + = active, no number. An excerpt; count on the stated rates, not on these rows.
Compound,Rce1 inhib,Env fusion inh,eIF4H FP inh,UUG fidelity,CSC inhib,MT1-MMP act inh,MT1-MMP act inh RFP,PABP FP inh
CC(=O)N1CCC(=O)Nc2ccc([N+](=O)[O-])cc21,i,4,9,/,-4,3,9,-4
Cc1ccc(C(C)C)c(OC(=O)/C=C/c2ccccc2)c1,i,31,-8,-7,/,0,0,-8
COc1ccc(C(OCC(O)CN2CCC(O)CC2)c2ccc(OC)cc2)cc1 (stereo not given),/,0,-5,-6,-6,3,5,4
C/C(=N\NC(=O)c1ccc(Br)o1)c1cc2c(cc1NC(=O)CCC(=O)O)OCO2,i,3,-11,-3,-2,-13,-4,5
CCOC(=O)c1ccc(S(=O)(=O)N2CCC(C(=O)NCc3ccccc3OC)CC2)cc1,/,20,/,3,-14,1,0,/
COc1ccc(C(=O)NC(C)C2CC3CCC2C3)c(OC)c1 (stereo not given),i,2,-16,11,/,-5,-1,-8
COC(=O)c1c(N)c2ccccc2[nH]c1=O,i,/,-11,-7,-4,-2,-5,-8
O=C1CC(NC2CCN(C(=O)c3cccc(F)c3)CC2)C(=O)N1 (stereo not given),i,-11,8,-15,/,0,2,3
Nc1c(N(CCCO)C(=O)C2CCCCC2)c(=O)[nH]c(=O)n1Cc1ccccc1,/,-12,/,-14,-17,3,4,/
CCOC(=O)c1ccccc1NC(=O)COC(=O)CC1CCCCC1,i,23,4,29,3,0,2,-3
COc1ccc(CNc2nc(-c3cccnc3)nn2S(C)(=O)=O)cc1,i,23,-1,-24,-22,-3,0,1
CC(C)c1cc(C(=O)Nc2cc(Br)ccc2O)no1,i,/,-8,-9,25,-3,-4,0
COc1ccc(-c2nc(CC(=O)O)cs2)cc1OC,+,/,-13,/,-18,/,/,8
Nc1ncnc2c1ncn2[C@@H]1O[C@H](CN=C2NS(=O)(=O)c3ccccc32)[C@@H](O)[C@H]1O,/,30,/,-1,/,1,5,/
CC(Oc1ccc(F)cc1)C(=O)N1CCN(c2ncccn2)CC1 (stereo not given),i,11,5,9,-3,-3,2,5
CSCCC(c1nnnn1C1CCCCC1)N1CCN(C/C=C/c2ccccc2)CC1 (stereo not given),/,-16,/,6,/,1,-1,/
C/C(=N\OCC(=O)OCC(=O)N(Cc1ccccc1)C(C)(C)C)c1ccc2c(c1)OCO2,i,13,/,-10,-2,7,4,/
CCCCCN(C(=O)CCC(=O)OCc1ccc(C(C)(C)C)cc1)c1c(N)n(CCCC)c(=O)[nH]c1=O,i,-11,7,-7,/,-34,-27,5
O=C(CN1CCC(NC(=O)c2cccc(F)c2)CC1)NCc1cccs1,i,2,-4,/,0,2,3,1
CCOC(=O)c1c(NC(=O)C(C)OC(=O)c2ccc(NC(=O)CC#N)cc2)sc2c1CCCC2 (stereo not given),i,/,/,/,1,-5,-3,/
CN(C)c1ccc(P(=O)(OCc2ccccc2)C(O)c2ccccc2F)cc1 (stereo not given),i,12,-5,/,-8,1,0,-6
CC(=O)NC(c1ccc(F)c(F)c1)c1nc(-c2ccc(F)c(Cl)c2)cs1 (stereo not given),/,23,/,-10,/,1,-2,/
COC(=O)c1cc(C(=O)Cc2ccccc2)c[nH]1,i,12,2,/,-16,/,/,-10
Cc1ccc(NC(=O)Cc2sc(C)nc2-c2ccc(C)cc2)cc1,i,-1,-18,/,13,0,2,-12
CCN(CC)S(=O)(=O)c1cc(C(=O)Nc2ccc(Cl)cn2)ccc1C,i,/,8,-14,-1,-1,-16,-12
CN(C)S(=O)(=O)N1CCN(C(=O)c2ccccc2)CC1,i,-58,-4,-22,1,2,2,0
O=C(COC(=O)Cc1cccc(C(F)(F)F)c1)Nc1ccc2c(c1)OCCO2,i,18,-4,/,-4,2,4,-3
COc1ccc(C2N(Cc3ccccc3)CCN2Cc2ccccc2)cc1[N+](=O)[O-],i,-33,4,/,-3,1,0,8
COc1ccccc1OCC(=O)NCC1CCCCC1,/,0,-13,-19,-17,0,-1,2
C[C@H](NC(=O)C1CC(=O)N(c2ccc3c(c2)OCCO3)C1)C(=O)N1CCCCC1 (stereo not given in full),i,-3,/,-18,-6,1,4,/
Cc1ccc2nc(NC(=O)CN(C)S(=O)(=O)c3cccc4nsnc34)sc2c1,i,-13,-1,-25,62,4,-3,3
CCC(=O)c1cc2c(C)cc(=O)oc2c(C)c1O,i,/,-6,-8,-3,-4,-5,-4
Cc1ccsc1C(=O)N(C)CC(=O)Nc1ccccc1Br,/,-11,/,-10,/,4,1,/
CSc1nc(O)c(C2OC(=O)c3ccccc32)c(=O)[nH]1 (stereo not given),i,-9,-4,-15,-1,-1,1,-1
CCN(CC)CCC(c1cc(OC)c(OC)c(OC)c1)c1c(O)cc(OC)cc1OC (stereo not given),i,-26,3,-19,-1,-4,-1,-9
CCOC(=O)C1=C(C)N=C2SC(C(=O)OC)=CC(=O)N2C1c1cccc(OC)c1 (stereo not given),i,-13,-6,0,-6,7,0,6
Cc1cccc(NC(=O)CSc2ccc(C(N)=O)cc2[N+](=O)[O-])c1C,i,-10,-4,3,16,0,3,5
Cc1cc(C(=O)Nc2ccc(Br)cc2)cs1,i,-44,5,-16,2,1,-4,8
Cc1ccc(NC(=O)CN2CCOCC2)c(Br)c1,i,2,-12,1,-13,-3,1,-12
CC(C)Cn1cc(C(=O)NCCCOC(C)C)c2c3ccccc3n(C)c2c1=O,i,-73,-1,-11,/,6,0,12

# Record cards, from the list above. Order of values: Rce1 inhib, Env fusion inh, eIF4H FP inh, UUG fidelity, CSC inhib, MT1-MMP act inh, MT1-MMP act inh RFP, PABP FP inh
# `Nc1ncnc2c1ncn2[C@@H]1O[C@H](CN=C2NS(=O)(=O)c3ccccc32)[C@@H](O)[C@H]1O` is entered as /, 30, /, -1, /, 1, 5, /
# `COc1ccc(CNc2nc(-c3cccnc3)nn2S(C)(=O)=O)cc1` is entered as i, 23, -1, -24, -22, -3, 0, 1
# `CCOC(=O)C1=C(C)N=C2SC(C(=O)OC)=CC(=O)N2C1c1cccc(OC)c1` (stereo not given) is entered as i, -13, -6, 0, -6, 7, 0, 6
# `C/C(=N\NC(=O)c1ccc(Br)o1)c1cc2c(cc1NC(=O)CCC(=O)O)OCO2` is entered as i, 3, -11, -3, -2, -13, -4, 5
# `Nc1c(N(CCCO)C(=O)C2CCCCC2)c(=O)[nH]c(=O)n1Cc1ccccc1` is entered as /, -12, /, -14, -17, 3, 4, /

# Continued.
Compound,Rce1 inhib,Env fusion inh,eIF4H FP inh,UUG fidelity,CSC inhib,MT1-MMP act inh,MT1-MMP act inh RFP,PABP FP inh
Cn1c(CSc2ccccc2)c(C#N)c2ccccc21,i,-31,1,-11,6,-4,1,-2
Cc1ccc(N=Cc2c(O)n(-c3cc(Cl)ccc3N3CCOCC3)c(=O)c3ccccc23)cc1C,i,/,-10,-12,-10,-11,-10,-14
CN1CCN(NC(=O)c2ccc(Br)c(S(=O)(=O)N3CCOCC3)c2)CC1,i,-3,-4,-6,-9,0,0,-8
CC(C)N(C(C)C)S(=O)(=O)c1ccc(N2CCc3ccccc3C2)nc1,i,-30,-9,-19,/,1,-9,0
COc1ccc(Cl)cc1NC(=O)CCc1nnc2ccc(N3CCC4(CC3)OCCO4)nn12,i,2,-1,0,8,2,-1,-9
COc1cc2cnncc2cc1OC,i,-31,0,-1,-13,3,0,5
CS(=O)(=O)c1ccc(Cl)c(NC(=O)CSc2nc3ccccc3c(=O)n2Cc2ccco2)c1,i,-3,/,/,2,-4,-1,/
Cc1ccc(S(=O)(=O)Nc2cnn(-c3ccccc3)c(=O)c2Cl)cc1,i,4,-1,/,19,0,0,7
COc1ccc(CCC(=O)Nc2sccc2C#N)cc1,i,-43,10,/,-4,/,/,7
Cc1cccc(NS(=O)(=O)c2ccc(C3CCCCC3)cc2)n1,i,2,-2,-16,-7,0,-9,-3
O=C(O)CC(Cc1ccc(Cl)cc1)C(=O)Nc1ccccc1 (stereo not given),i,-30,-11,-5,-3,-1,4,2
CN(C)S(=O)(=O)c1cc(NC(=O)CSc2ncc(C(F)(F)F)cc2Cl)ccc1Cl,i,-23,-1,/,44,-2,-20,4
COc1ccccc1C(=O)N/C(=C\c1ccccc1)C(=O)NCc1ccco1,i,-14,0,-7,/,-1,3,1
Cc1c(NC(=O)CN2CCN(C(=O)c3ccco3)CC2)c(=O)n(-c2ccccc2)n1C,i,-28,0,-14,-13,9,-4,-2
COC(=O)c1ccc(OC(=O)c2cccnc2)cc1,i,-14,-2,/,-5,-7,-3,-4
O=C(CC(=O)Nc1ccccc1C(=O)O)NNC(=O)Cc1ccccc1,i,-4,-4,-17,4,2,-4,-4
Cc1nc(Sc2ccc(Cl)cc2)c(C#N)c(C)c1[N+](=O)[O-],/,9,-8,-7,51,-10,-17,-11
COC(CNC(=O)c1ccc2c(c1)nc(C)n2-c1cccc(C)c1)OC,i,4,-12,-7,-9,1,3,6
O=[N+]([O-])c1ccc(Nc2nc(NC3CCCCC3)nc(N3CCCC3)n2)cc1,i,19,-5,/,/,-1,-14,-7
CCOC(=O)c1c(-c2ccccc2)oc2ccc(OCC(N)=O)cc12,i,1,-12,-8,-5,-2,-3,-4
Cc1coc2c(C)c3oc(=O)c(CCC(=O)N[C@H](C(=O)O)C(C)C)c(C)c3cc12,/,1,/,-2,/,4,1,/
C=CCNC(=O)/C=C/c1cccs1,i,2,1,/,-6,4,0,33
CCCCC(C(=O)OCC(=O)c1ccc(OC)cc1)N1C(=O)c2ccccc2C1=O (stereo not given),i,/,3,-13,-6,-9,1,5
Nn1c(SCC(=O)Nc2ccc3c(c2)OCO3)nnc1-c1cccc(Cl)c1,i,-52,-4,-16,-6,2,0,2
Cc1ccc(C)c(SCC(=O)NCc2ccco2)c1,i,-180,2,-6,1,-8,-1,-1
CS/C(N)=N/N=C/c1c(O)ccc2ccccc12,i,-57,11,/,14,1,0,37
CCOC(=O)C1CCN(CC(=O)Nc2cc(S(=O)(=O)N3CCOCC3)ccc2C)CC1,i,6,11,-9,5,4,-1,5
CC(O)(c1ccc(F)c(F)c1)c1nc(/C=C/c2ccccc2)cs1 (stereo not given),/,13,/,-20,/,-2,-8,/
CCCOc1ccc(-c2nnc(N)s2)cc1,i,-130,1,-6,-12,-2,-5,2
Cc1cc([N+](=O)[O-])nn1CCCC(=O)N1CCN(c2ccc(F)cc2)CC1,i,25,-1,/,-12,-1,-1,3

# Reprinted at random: 3 compounds from above
Compound,Rce1 inhib,Env fusion inh,eIF4H FP inh,UUG fidelity,CSC inhib,MT1-MMP act inh,MT1-MMP act inh RFP,PABP FP inh
Cc1cc([N+](=O)[O-])nn1CCCC(=O)N1CCN(c2ccc(F)cc2)CC1,i,25,-1,/,-12,-1,-1,3
CS/C(N)=N/N=C/c1c(O)ccc2ccccc12,i,-57,11,/,14,1,0,37
CC(O)(c1ccc(F)c(F)c1)c1nc(/C=C/c2ccccc2)cs1 (stereo not given),/,13,/,-20,/,-2,-8,/

# Screening data as filed in PubChem BioAssay.
